Compound activity: PubChem, National Center for Advancing Translational Sciences (NCATS)
TRPML1 ag: agonists of human TRPML1 channel. TRPML1-expressing cells, Ca2+ dye fluorescence, FDSS; host cell line not named in the record; reference of the full effect not given here. activation, % (no concentration beside the values). 410,000 tested, 0.12% active. AID 624414; in the data active = activation above about 50%; inconclusive = about 30% to 50%; inactive = below about 30%; further: 0% is about no effect; the text of the record puts the active cut at 80%
Target sequence (Q9GZU1 whole entry, looked up): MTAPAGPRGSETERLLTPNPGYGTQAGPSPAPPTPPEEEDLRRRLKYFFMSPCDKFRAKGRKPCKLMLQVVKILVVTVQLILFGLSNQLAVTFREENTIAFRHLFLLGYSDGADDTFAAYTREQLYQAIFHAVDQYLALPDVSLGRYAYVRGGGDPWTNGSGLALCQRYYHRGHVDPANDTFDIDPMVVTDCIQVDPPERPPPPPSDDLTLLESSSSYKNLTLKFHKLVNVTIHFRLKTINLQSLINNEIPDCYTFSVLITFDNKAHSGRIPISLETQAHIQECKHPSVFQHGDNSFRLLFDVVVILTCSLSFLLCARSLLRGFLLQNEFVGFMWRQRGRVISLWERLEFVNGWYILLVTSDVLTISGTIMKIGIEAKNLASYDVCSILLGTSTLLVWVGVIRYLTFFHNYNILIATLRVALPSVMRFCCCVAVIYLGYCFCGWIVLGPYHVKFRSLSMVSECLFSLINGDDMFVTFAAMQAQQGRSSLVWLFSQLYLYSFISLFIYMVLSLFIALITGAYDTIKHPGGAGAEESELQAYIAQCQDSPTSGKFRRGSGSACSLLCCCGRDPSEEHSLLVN
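Cells: TRPML1-DL, 1X Tet inducer, ~16 h at 37 degrees C/5% CO2. Dye: ABD Ca8 no-wash + quencher, 45-90 min RT. Read: 10 s baseline, compound add, 110 s agonist phase; 54-4 EC80 (4uM final), 110 s antagonist phase.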
TRPML1 blocker: inhibitors of human TRPML1 channel; AID 624415; Q9GZU1; activity change, negative = inhibition, % (test concentration not listed); TRPML1-inducible cells, Ca2+ dye fluorescence, FDSS; stronger effect = lower value; inhibition of EC80 agonist-evoked calcium signal; 390,000 tested, 0.02% active; in the data active means activity change below about -50%; inconclusive means about -30% to -50%; inactive means above about -30%;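 further: stimulus is agonist 54-4 at its EC80 concentration; on the % scale 0 is the no-effect control and ±100 the full control effect; compound concentration not given in the record; the text of the record puts the active cut at -80%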
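Tet-induced TRPML1-DL cells loaded with Ca8 no-wash calcium dye were read kinetically on FDSS. Compound addition was followed by EC80 agonist 54-4 (4 uM final); inhibition was read over 110 s.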
Six1-Eya2 inh: Six1/Eya2 interaction inhibition | activity change, % (no concentration beside the values) | AlphaScreen GST-Six1/His-Eya2 binding, biochemical; stronger effect = lower value; control for the full effect not named in the record | 360,000 tested, 0.56% active; in the data active = activity change below about -65%; inconclusive = about -30% to -65%; inactive = above about -30%; further: on the % scale 0 is the no-effect control and ±100 the full control effect; compound concentration not given in the record
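Homogeneous AlphaScreen proximity assay pairing GST-Six1 with His-tagged Eya2 (added as 5X mix: 250 nM and 500 nM) in 50 mM Tris pH 8.0, 300 mM NaCl, 1 mM TCEP. Glutathione donor and nickel acceptor beads; 1 h, 37 °C, dark.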
D2 agonist: activates the human D2 dopamine receptor | P14416 | DiscoveRx PathHunter D2 beta-arrestin, luminescence, 90 min; 100% = 57 uM dopamine signal | activation, % (concentration not given with the values) | 360,000 tested, 0.084% active; in the data active = activation above about 40%; inconclusive = about 15% to 40%; inactive = below about 15%; further: compound concentration not given in the record; the text of the record calls up to 30% inactive
Target sequence (P14416 whole entry, looked up): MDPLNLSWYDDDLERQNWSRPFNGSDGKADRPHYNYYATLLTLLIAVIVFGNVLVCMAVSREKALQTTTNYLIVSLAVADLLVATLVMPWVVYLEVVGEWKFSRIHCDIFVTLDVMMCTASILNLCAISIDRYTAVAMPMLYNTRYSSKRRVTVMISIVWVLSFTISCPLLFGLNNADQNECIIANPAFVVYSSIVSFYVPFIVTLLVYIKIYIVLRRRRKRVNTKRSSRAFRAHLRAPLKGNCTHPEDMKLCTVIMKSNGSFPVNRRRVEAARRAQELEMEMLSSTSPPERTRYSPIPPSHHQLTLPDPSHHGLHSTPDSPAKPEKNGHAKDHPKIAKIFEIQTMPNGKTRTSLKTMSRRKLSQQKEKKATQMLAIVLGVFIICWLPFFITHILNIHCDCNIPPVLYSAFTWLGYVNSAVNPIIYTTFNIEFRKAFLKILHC
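Agonist mode: compounds alone added to overnight-plated D2 PathHunter cells for 90 min at 37 C, with 57 uM final dopamine (EC100) defining full response. Beta-arrestin recruitment detected by chemiluminescent reagent, read after 1 h at ambient temperature.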
CtBP-E1A blk: blocks the CtBP interaction with E1A; activity change, % (concentration not given with the values); 340,000 tested, 0.49% active; AlphaScreen GST-E1A/His-CtBP binding, 1536-well; stronger effect = lower value; control for the full effect not named in the record; in the data active means activity change below about -65%; inconclusive means about -30% to -65%; inactive means above about -30%; further: on the % scale 0 is the no-effect control and ±100 the full control effect
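GST-E1A and His-tagged CtBP (125 nM each as 5X stock) were preincubated with pin-transferred compound for 2 h at 37 °C in the dark, then glutathione donor and nickel acceptor beads were added for 1 h before AlphaScreen reading.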
PINK1 modulator: modulators of PINK1 expression. PINK1 immunofluorescence, high-content cytometry, 24 h. Potency, µM (highest dose often 76.6 µM), without a hit: top-dose activation (PINK1 increase), actives largely listed as activators. 410,000 tested, 0.2% active. AID 624263; active = well fitted activation curve with a large enough effect; inconclusive = small, poorly fitted or top-dose-only effect; inactive = flat fitted curve, though single readings scatter; cell line not stated here;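 further: potency means the concentration at half of the fitted maximal effect; % of control where 0% means no effect; nearly all actives have a fitted effect of over 65% in size; a mitochondrial uncoupler was the plate control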
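Cells are seeded, rested 12 hours, then given compound at five concentrations or DMSO for 24 hours. After fixation, blocking and antibody staining, PINK1 amount and mitochondrial localization are scored; CCCP serves as control.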
* marks the source's active call; other numbers are inactive results; ? = inconclusive; . = not tested or not shown; & = joins results of further samples.

SMILES	TRPML1 ag	TRPML1 blocker	Six1-Eya2 inh	D2 agonist	CtBP-E1A blk	PINK1 modulator
CCN(CC(=O)Nc1c(F)cccc1F)C(=O)CSCC(=O)Nc1cc(C)on1	-0.8	14	3	-4.6	0	-0.1%
Cc1ccc(C)c(C(=O)OCC(=O)N(C)c2ccccc2)c1	0.2	-4	5	-1.7	0	2.5%
Cn1cc(S(=O)(=O)N2CCCCCC2)cc1C(=O)N1CCN(c2ccc(F)cc2)CC1	0.0	-19	.	.	.	-0.7%
CCC1CCC2(CC1)NC(=O)N(CC(=O)c1c(C)[nH]c3ccccc13)C2=O (configuration not stated)	0.3	2	-2	4.1	-1	1.0%
CCN(CC)c1ccc(-n2cc3c(=O)n(C)c(=O)n(C)c3c2)cc1	2.9	-10	?	-5.1	?	-2.7%
O=C(CSc1ccc(-c2ccccn2)nn1)NCc1ccc(Cl)cc1	0.8	3	?	-3.1	-70*	-3.6%
COc1ccc(CC(N)c2csc(NC(=O)Nc3ccc(C(C)C)cc3)n2)cc1 (configuration not stated)	-0.2	.	-8	?	-13	-0.7%
O=C1C(=O)N(Cc2ccco2)C(c2cccc(Cl)c2)/C1=C(\O)c1ccc2c(c1)OCCO2 (configuration not stated)	0.5	10	-5	-1.2	-1	0.1%
CC(=O)/C(=C/N(C)C)C(=O)Nc1ccc(Cl)cc1Cl	0.3	-12	-1	-3.0	-2	4.0%
CC(=O)N1c2ccc(S(=O)(=O)NCCc3cccc(C)c3)cc2CC1C (configuration not stated)	2.1	25	.	.	.	1.2%
CCS(=O)(=O)N1N=C(c2cccs2)CC1c1cc2cc(C)ccc2nc1Cl (configuration not stated)	1.1	49	-3	-3.6	.	1.9%
CCOc1ccc(-n2c(SCc3ccc(C(=O)OC)o3)nc3c([nH]c4ccccc43)c2=O)cc1	0.1	-6	.	.	.	-2.5%
CC1(C)N=C(N)N=C(N)N1c1cccc(CN)c1	2.5	-3	1	2.8	6	0.5%
Cc1ccc(NS(=O)(=O)c2c(C)[nH]c(C)c2C(=O)N2CCCC2)cc1	0.2	-4	0	-0.6	3	-0.5%
CC(=O)Nc1c(OC(C)=O)ccc2c(C)cc(=O)oc12	-0.6	4	-15	-2.1	-1	-1.0%
Cc1cccc(Nc2cc(C)nc(-n3nc(C)cc3C)n2)c1	-1.4	7	.	.	.	1.5%
CCOc1ccccc1-n1c(=S)sc2c(=O)n(-c3ccccc3)c(=S)[nH]c21	-0.2	0	-18	7.1	-9	-0.9%
COc1ccc(OC)c(-c2nnc3n(Cc4ccc(C)cc4)c(=O)c4ccccc4n23)c1	-0.6	16	.	.	.	0.7%
O=C(O)c1ccc(Cl)c(NC(=O)C2CCN(S(=O)(=O)c3cccs3)CC2)c1	-0.6	20	6	-0.4	-14	-0.3%
CN1/C(=C\C(=O)COC(=O)C2COc3ccccc3O2)C(C)(C)c2ccccc21 (configuration not stated)	2.0	20	-1	-0.8	2	-1.6%
COc1ccc(C(C)(O)c2nc(-c3cccs3)cs2)cc1 (configuration not stated)	-0.2	.	-1	-3.7	3	7.4%
O=C(CCCCn1c(=O)[nH]c2ccsc2c1=O)NCc1ccc2c(c1)OCO2	-0.4	4	-5	-3.3	-11	-0.8%
CCS(=O)(=O)C1=NN2C(=N)/C(=C\c3ccc(OC(=O)c4ccco4)cc3)C(=O)N=C2S1	1.0	22	8	-2.0	.	0.4%
CC1CC(C)CN(S(=O)(=O)c2cc3c4c(c2)CCC(=O)N4CCC3)C1 (configuration not stated)	-0.5	-4	2	-1.2	1	0.5%
O=C(CCc1nc2ccccc2c(=O)[nH]1)Nc1nc(-c2cccs2)cs1	0.1	-15	1	6.3	-3	?
SMILES	TRPML1 ag	TRPML1 blocker	Six1-Eya2 inh	D2 agonist	CtBP-E1A blk	PINK1 modulator
CCOC(=O)N1CCN(C(c2ccc(Cl)cc2)c2sc3nc(C)nn3c2O)CC1 (configuration not stated)	0.6	45	0	1.7	3	0.7%
COc1ccc(CNC(=O)[C@H](NC(=O)C2CCN(C(=O)[C@@H](N)CCSC)CC2)C(C)C)cc1	.	.	2	2.2	8	-0.6%
C=CCn1c(-c2cccnc2Cl)nc2cc(Cl)c(Cl)cc21	0.2	-2	-2	2.6	4	?
CC(C)c1cc(N2CCC(=O)NC2=O)cc(C(=O)O)c1O	-0.3	-1	5	-1.0	1	-0.6%
Cc1nnc(N2C(=O)C(O)=C(C(=O)c3ccco3)C2c2cccc([N+](=O)[O-])c2)s1 (configuration not stated)	0.9	-4	20	-7.1	0	0.8%
COc1ccc(-c2nc(CN3CCC(C(=O)NCC4CCCO4)CC3)c(C)o2)cc1OC (configuration not stated)	-0.5	22	0	-5.4	-1	0.0%
CCOC(=O)c1sc(=NC(=O)COc2ccc(Cl)cc2)n(C)c1C	-1.2	4	5	-3.1	-9	5.0%
COc1ccc(N(CC(=O)Nc2cccc(C(F)(F)F)c2)S(=O)(=O)c2c(C)[nH]c(=O)[nH]c2=O)cc1	-0.4	26	-5	-7.6	-22	0.7%
CC(C)(C)c1ccc(S(=O)(=O)NC(=O)C2(C)CCN2C(=O)Cc2ccc(Cl)cc2Cl)cc1 (configuration not stated)	0.4	.	2	-1.0	3	0.9%
COc1ccc([N+](=O)[O-])cc1NC(=O)COC(C)=O	-0.4	-15	0	-5.7	14	0.4%
COCCCn1c(=O)c2sccc2n2c(CCCC(=O)NCc3cccc(OC)c3)nnc12	-0.2&-0.3	6&-6	-4	-5.1	0	-1.0%&-0.7%
O=C(O)C1CCCN(S(=O)(=O)c2ccc(Br)s2)C1 (configuration not stated)	-0.4	-4	1	0.0	?	0.3%
COc1ccc(CCNS(=O)(=O)c2cn(C)c(=O)n(C)c2=O)cc1OC	0.0	22	5	0.8	9	-0.4%
COc1cccc(-c2nc3sc4c(c3c(=O)[nH]2)CCCCC4)c1	0.0	-4	5	0.1	3	11%
CN1CCC(CN)(N2CCN(c3ccccc3)CC2)CC1	0.4	21	-8	0.5	.	-0.3%
CC(Oc1ccc(Cl)cc1Cl)C(=O)Nc1ncccn1 (configuration not stated)	-1.3	-10	5	-4.3	2	-0.3%
C/C(=N/NC(=O)c1nnn(-c2nonc2N)c1COc1ccccc1)c1ccc(O)cc1	0.6	-9	-2	4.3	-9	-0.5%
Cc1c(O)ccc(/C=N/Nc2ncccc2[N+](=O)[O-])c1O	0.4	-5	?	11	?	5.4%
Cc1ccc(C)c(OCCn2nnc3ccccc32)c1	0.6	-8	3	-3.2	.	-1.6%
Cc1cn2c(=O)cc(COC(=O)c3ccc(NC(=O)c4ccccc4C)cc3)nc2s1	1.6	-1	.	.	.	-0.2%
COc1cc(C(=O)OCc2cc3ccccc3[nH]c2=O)cc(OC)c1OC	-1.4	-6	5	0.2	3	4.4%
Cc1cc(NC(=O)CSc2nnc(-c3ccccc3)n2Cc2ccco2)no1	0.7	9	-2	-3.3	-1	0.0%
COc1ccc(NC(=O)NC[C@@H]2CC[C@@H](Cc3ccc(-c4ccccc4)cc3)O2)cc1	-0.1	1	-1	1.0	0	3.7%
Cc1nn2c(=O)cc(CSc3ccccc3NC(=O)c3ccccc3)nc2s1	0.7	9	0	-7.3	-2	-0.2%
C=CCOc1ccc(C2NC(=S)NC(C)=C2C(=O)c2ccccc2)cc1OC (configuration not stated)	-0.5	-19	?	-2.7	-1	4.0%

3 compounds already listed, arranged by their value in D2 agonist, ascending:
mol,D2 agonist
COc1ccc([N+](=O)[O-])cc1NC(=O)COC(C)=O,-5.7
CC(C)c1cc(N2CCC(=O)NC2=O)cc(C(=O)O)c1O,-1.0
CN1CCC(CN)(N2CCN(c3ccccc3)CC2)CC1,0.5

Molecules shown so far with fluorine:
SMILES	TRPML1 ag	TRPML1 blocker	Six1-Eya2 inh	D2 agonist	CtBP-E1A blk	PINK1 modulator
CCN(CC(=O)Nc1c(F)cccc1F)C(=O)CSCC(=O)Nc1cc(C)on1	-0.8	14	3	-4.6	0	-0.1%
Cn1cc(S(=O)(=O)N2CCCCCC2)cc1C(=O)N1CCN(c2ccc(F)cc2)CC1	0.0	-19	.	.	.	-0.7%
COc1ccc(N(CC(=O)Nc2cccc(C(F)(F)F)c2)S(=O)(=O)c2c(C)[nH]c(=O)[nH]c2=O)cc1	-0.4	26	-5	-7.6	-22	0.7%

The list goes on:
SMILES	TRPML1 ag	TRPML1 blocker	Six1-Eya2 inh	D2 agonist	CtBP-E1A blk	PINK1 modulator
CCOc1cc(C(=O)Nc2cc(C(=O)OC)ccc2C)ccc1OCC(=O)N1CCOCC1	-0.3	-6	0	-5.9	11	1.9%
O=S1(=O)N=C(N(Cc2cccs2)c2ccc(O)cc2)c2ccccc21	1.5	-3	6	-3.0	.	1.1%
CN1CCCN(C(=O)c2cccc(Cl)c2)CC1	-0.5	-7	3	-6.3	20	1.3%
Cc1nn(CC(=O)NCCN2CCCCC2C)c(=O)c2cc(-c3ccccc3)nn12 (configuration not stated)	-0.2	13	0	2.8	.	2.0%
CCC(=O)Nc1ccc(Nc2nc(C)c([N+](=O)[O-])c(Nc3ccc(NC(=O)CC)cc3)n2)cc1	1.9	42	-13	-3.6	-2	-0.6%
COc1ccc(N/C=C/C(=O)C(C)(C)C)cc1	-0.5	11	-5	-3.5	-6	1.4%
CCCCN(c1ccccc1)S(=O)(=O)N(C)C	1.0	-3	1	-5.4	0	0.9%
Nn1c(SCC(=O)N2CCOCC2)nnc1-c1ccc(Cl)cc1Cl	-0.2	-9	1	-2.9	3	0.0%
O=C(/C(C=Nc1cc2c(oc1=O)CCCC2=O)=C(\O)c1ccccc1)c1ccccc1	1.6	-9	12	0.9	.	-1.6%
CNC(=S)NNc1ccccc1[N+](=O)[O-]	-0.8	-11	0	3.3	-1	1.1%
COc1ccc(NC(=O)CSC2=Nc3ccccc3C3=NC(CC(=O)NCc4ccccc4OC)C(=O)N23)cc1Cl (configuration not stated)	0.6	-13	.	.	.	2.6%
CC(CN(C)Cc1ccccc1)OC(=O)c1cccc(F)c1 (configuration not stated)	3.3	-9	23	-4.4	2	?
COc1cc(C(=O)O)ccc1Cl	.	.	27	2.3	2	0.5%
CCOC(=O)C1CCN(CCC(=O)Nc2cccc(Cl)c2C)CC1	0.6	-8	3	-1.3	0	?
COc1ccc(Cc2nnc(SCC(=O)Nc3ccc(C)cc3C)[nH]c2=O)cc1	-0.5	-4	1	2.1	-24	-2.8%
COc1ccc(-c2nc3c(Cl)cc(C(F)(F)F)cn3c2Cc2ccccc2C(F)(F)F)cc1OC	0.2	.	12	.	-8	2.0%
C[C@@H]1CN([C@H](C)CO)S(=O)(=O)c2ccc(C#Cc3ccccc3F)cc2O[C@@H]1CN(C)C(=O)Cc1ccccc1	-0.2	7	5	-10	2	8.6%
CCOC(=O)C1=C(CN(C)Cc2ccccc2)NC(=O)NC1c1ccc(OC)cc1 (configuration not stated)	1.8	19	.	.	.	2.3%

3 compounds from above with just Six1-Eya2 inh.
SMILES | Six1-Eya2 inh
CCCCN(c1ccccc1)S(=O)(=O)N(C)C | 1
Nn1c(SCC(=O)N2CCOCC2)nnc1-c1ccc(Cl)cc1Cl | 1
O=C(/C(C=Nc1cc2c(oc1=O)CCCC2=O)=C(\O)c1ccccc1)c1ccccc1 | 12
